Screens from PubChem BioAssay.
MT1-MMP act inh: blocks activation of human MT1-MMP. HT1080 RFP-PRO-GFP cells, GFP/RFP ratio fluorescence, overnight; percent of plate control window, DMSO zero. GFP/RFP ratio change, % at 20 µM. actives 0.061% (n = 360,000);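 active = GFP/RFP ratio change of at least 30% with cell ATP level not reduced by more than half and red fluorescence within 50% of control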; also: strong numbers were not always called active
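Test system: HT1080 cells expressing an RFP-PRO-GFP fluorescent reporter construct / Compound dosing: single-point 20 µM compound, 1% DMSO / Schedule: cells overnight before dosing, compound overnight, 37 °C, 5% CO2 / Evaluation: GFP/RFP fluorescence ratio / Control set: DMSO and RFP-L50D-GFP cell wells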
CSC inhib: blocks cancer stem cells; AID 2717; cancer stem cell-like cells viability, luminescence; inhibition, % at 7.5 µM; actives 1.1% (n = 300,000);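 active = mean at 75% or more and at least half the replicates too; inconclusive = mean and replicates disagree; tested in HMLE shEcad cells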;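 also: 0% = median of negative and 100% = median of positive control wells; the first replicate is given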
UUG fidelity: modulators of start codon recognition fidelity in yeast | S. cerevisiae UUG-firefly luciferase reporter, luminescence/redox ratio | activity score, % at 18.7 µM | actives 0.13% (n = 350,000) | AID 602363;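 active = replicate mean at a twofold rise or more, about +100% in these data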;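 also: firefly luciferase made from a UUG start codon reports start codon fidelity; reporter light over untreated wells divided by growth signal over untreated wells; some hits fall short of that in this replicate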
Rce1 inhib: blocks yeast Ras-converting enzyme. yeast membranes, quenched prenylated peptide cleavage fluorescence. calls only. actives 0.27% (n = 290,000). AID 2563;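 active = fall in fluorescence gain of 50% or more versus controls, with final raw signal at or below 3038400; inconclusive = same 50% fall but final raw signal above 3038400; inactive = fall in fluorescence gain under 50%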;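 also: plate controls were neutral control wells for no effect and wells lacking membranes for full effect; tested at 10 µM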
PABP polyA inh: PABP-poly(A) binding inhibition; P11940; actives 1% (n = 290,000); AID 2014; inhibition, % at 35 µM; PABP-poly(A) RNA binding, fluorescence polarization;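 active = 50% or more with normal probe brightness, or confirmed in later tests; inconclusive = above 50% with abnormal brightness, or retests that disagree; inactive = below 50% or failed in later tests; about a fifth of its hits are not listed in these tables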;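 also: calls also rest on retests at 20 µM and on dose response follow-up; controls were probe without protein and protein plus probe with vehicle; some compounds called inactive have numbers as strong as hits; many hits fall short of the cut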
Target sequence (P11940 whole entry, looked up): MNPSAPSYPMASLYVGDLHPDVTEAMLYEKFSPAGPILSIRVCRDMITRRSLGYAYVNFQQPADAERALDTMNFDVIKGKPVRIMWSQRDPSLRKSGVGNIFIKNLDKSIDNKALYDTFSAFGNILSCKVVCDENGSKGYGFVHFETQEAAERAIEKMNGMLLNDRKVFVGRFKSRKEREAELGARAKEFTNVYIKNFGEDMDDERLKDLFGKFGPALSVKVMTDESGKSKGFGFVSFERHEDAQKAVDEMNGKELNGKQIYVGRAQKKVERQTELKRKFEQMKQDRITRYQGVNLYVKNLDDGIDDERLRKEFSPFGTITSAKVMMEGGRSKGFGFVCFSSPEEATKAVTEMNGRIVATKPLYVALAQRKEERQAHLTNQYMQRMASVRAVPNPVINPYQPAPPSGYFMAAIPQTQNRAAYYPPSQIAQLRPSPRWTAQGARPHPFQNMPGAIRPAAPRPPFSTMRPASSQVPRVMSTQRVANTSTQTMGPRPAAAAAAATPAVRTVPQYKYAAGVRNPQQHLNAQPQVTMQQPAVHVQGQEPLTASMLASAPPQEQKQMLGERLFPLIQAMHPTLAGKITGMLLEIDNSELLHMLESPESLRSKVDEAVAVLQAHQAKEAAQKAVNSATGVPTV
eIF4H inh: inhibitors of RNA binding by human eIF4H; inhibition, % at 35 µM; Q15056; eIF4H fluorescence polarization binding assay; AID 2012; actives 0.94% (n = 290,000);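 active = 50% or more with normal probe brightness, or confirmed in later tests; inconclusive = above 50% with abnormal brightness, or retests that disagree; inactive = below 50% or failed in later tests; about a fifth of its hits are not listed in these tables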;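 also: calls also rest on retests at 20 µM and on dose response follow-up; 0% = protein and probe with vehicle and 100% = probe without protein; strong numbers were not always called active; many hits fall short of the cut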
HIV Env fusion: inhibitors of HIV Env-mediated cell fusion. actives 1.1% (n = 360,000). HeLa-JRFL Env/CEM21 cell fusion, luciferase. inhibition, % at 12.3 µM;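 active = mean replicate inhibition score of at least 50 and every replicate individually at or above 50; inconclusive = only one of the two criteria met; inactive = mean below 50 and not all replicates reaching 50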;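 also: 0% = plate neutral controls and 100% = maraviroc near 300 nM; one replicate is shown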
MT1-MMP act inh RFP: recorded beside MT1-MMP act inh, whose call it bears; RFP signal change, %; measured here: RFP expression control read;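 0 = vehicle wells; hits needed this value within 50% of zero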
* = called active by the depositor; i = inactive; u = inconclusive; x = not tested or not shown; + = active, no number.

Preview, 13 compounds:
SMILES	MT1-MMP act inh	MT1-MMP act inh RFP	CSC inhib	UUG fidelity	Rce1 inhib	PABP polyA inh	eIF4H inh	HIV Env fusion
NC(=O)C1CCN(c2ccc3c(c2)S(=O)(=O)c2ccccc2C3=O)CC1	-72	-6	2	-14	i	x	x	-11
Oc1cc(Cc2ccccc2)cnc1CN1CCOCC1	3	4	-4	-21	i	-2	-5	x
Cc1cc(-c2cc(C(=O)NCc3ccccc3)on2)nc(S(C)(=O)=O)n1	4	4	14	0	i	7	-10	40
CC(C)[C@H](NC(=O)c1ccccc1)C(=O)OCC(=O)c1ccc(S(=O)(=O)N2CCCCC2)cc1	1	0	-1	-8	i	x	x	-6
Cc1cc2c(o1)CC(C)(C)CC2=O	-1	0	-14	x	i	-8	-11	7
CCOC(=O)c1c(C)[nH]c(C(=O)OCC(=O)c2ccc(OC)cc2OC)c1C	7	-6	38	x	x	x	x	-1
COc1ccc(Cl)cc1NC(=O)Nc1cc(C)on1	0	-3	8	-11	i	-7	-2	13
CCCn1c(SCC(=O)c2ccc(CC)cc2)n[nH]c1=O	9	3	-2	14	i	-9	2	x
CCCNC(=S)Nc1ccc(F)cc1F	2	1	-13	-16	i	9	-6	-5
O=C(NS(=O)(=O)Nc1ccc(Br)cn1)c1c[nH]c2ccccc12	0	4	-15	8	i	4	-6	1
CC(NC(=O)CN1CCN(c2ncccn2)CC1)c1ccc(F)cc1 (centres undefined)	-2	1	x	x	i	2	0	x
O=C(c1cccc(F)c1)N1CCCN(C(=O)c2cccc(F)c2)CC1	-6	4	-8	5	i	-2	-4	17
COc1ccc(NC(=O)c2sc(=O)n(Cc3cccc(C(F)(F)F)c3)c2C)cc1OC	-1	-15	x	-7	x	x	x	41

The list itself, from the start:
SMILES	MT1-MMP act inh	MT1-MMP act inh RFP	CSC inhib	UUG fidelity	Rce1 inhib	PABP polyA inh	eIF4H inh	HIV Env fusion
NC(=O)C1CCN(c2ccc3c(c2)S(=O)(=O)c2ccccc2C3=O)CC1	-72	-6	2	-14	i	x	x	-11
Oc1cc(Cc2ccccc2)cnc1CN1CCOCC1	3	4	-4	-21	i	-2	-5	x
Cc1cc(-c2cc(C(=O)NCc3ccccc3)on2)nc(S(C)(=O)=O)n1	4	4	14	0	i	7	-10	40
CC(C)[C@H](NC(=O)c1ccccc1)C(=O)OCC(=O)c1ccc(S(=O)(=O)N2CCCCC2)cc1	1	0	-1	-8	i	x	x	-6
Cc1cc2c(o1)CC(C)(C)CC2=O	-1	0	-14	x	i	-8	-11	7
CCOC(=O)c1c(C)[nH]c(C(=O)OCC(=O)c2ccc(OC)cc2OC)c1C	7	-6	38	x	x	x	x	-1
COc1ccc(Cl)cc1NC(=O)Nc1cc(C)on1	0	-3	8	-11	i	-7	-2	13
CCCn1c(SCC(=O)c2ccc(CC)cc2)n[nH]c1=O	9	3	-2	14	i	-9	2	x
CCCNC(=S)Nc1ccc(F)cc1F	2	1	-13	-16	i	9	-6	-5
O=C(NS(=O)(=O)Nc1ccc(Br)cn1)c1c[nH]c2ccccc12	0	4	-15	8	i	4	-6	1
CC(NC(=O)CN1CCN(c2ncccn2)CC1)c1ccc(F)cc1 (centres undefined)	-2	1	x	x	i	2	0	x
O=C(c1cccc(F)c1)N1CCCN(C(=O)c2cccc(F)c2)CC1	-6	4	-8	5	i	-2	-4	17
COc1ccc(NC(=O)c2sc(=O)n(Cc3cccc(C(F)(F)F)c3)c2C)cc1OC	-1	-15	x	-7	x	x	x	41
Cn1cccc1C(=O)NCCc1ccccc1	1	3	-6	-30	i	4	-1	-18
COc1ccc2[nH]cc(CCNC(=O)COc3ccc4ccc(=O)oc4c3)c2c1	0	-5	-9	1	i	-11	-13	x
CC(Sc1nnc(-c2ccccc2F)n1C1CC1)C(=O)NCc1ccco1 (centres undefined)	-4	-1	x	-4	x	x	x	-7
Nc1ccccc1Nc1cccc(C(F)(F)F)c1	14	6	40	x	i	3	10	-16
CN(CCC(=O)Nc1cc(S(=O)(=O)N(C)C)ccc1Cl)CC(=O)Nc1ccc(F)cc1	5	1	-6	0	x	1	-18	40
COc1ccc(C2C(C#N)=C(N)OC3=C2C(=O)CCC3)cc1Cn1cc([N+](=O)[O-])cn1 (centres undefined)	0	2	-4	x	i	44	0	17
O=C(Nc1ccc(Cl)cc1C(=O)N1CCCC1)c1cccc([N+](=O)[O-])c1	-1	1	-5	-6	i	0	-2	14
COc1ccc(C2C3C(C)=NN=C3CC(C)(O)C2C(C)=O)cc1 (centres undefined)	1	8	-13	-13	i	-3	-4	-38
CCNC(=O)C1(C)CCCN1C(=O)c1ccc(N(C)C)cc1 (centres undefined)	-6	1	x	-8	x	x	x	-22
COc1ccc(NC(=O)Cc2nnc(SCC(=O)Nc3ccc(F)cc3)n2C)cc1	3	3	-4	-8	x	12	-7	-5
Cc1cc(C)n2nc(SCC(=O)N(Cc3ccccc3)C3CCS(=O)(=O)C3)nc2n1 (centres undefined)	5	-1	-1	x	i	-1	-4	-3
CC1CN(c2ccc(C(F)(F)F)cc2[N+](=O)[O-])CCN1S(C)(=O)=O (centres undefined)	1	-4	-10	7	i	-5	-8	-185
The results go on:
SMILES	MT1-MMP act inh	MT1-MMP act inh RFP	CSC inhib	UUG fidelity	Rce1 inhib	PABP polyA inh	eIF4H inh	HIV Env fusion
O=S(=O)(Nc1ccccc1N1CCOCC1)c1ccc(Cl)cc1	0	0	-10	-5	x	x	x	x
O=C(CCN1C(=O)S/C(=C/c2ccc(Cl)cc2)C1=O)N1CCOCC1	4	-1	5	-6	i	-8	-12	2
O=C1NC[C@H](c2ccccc2)OC(=O)[C@@H](Cc2ccc(F)cc2)C/C=C\C[C@H]1CC(=O)N(CCO)Cc1ccccc1	-30	-16	41	1	x	x	x	-36
CCc1cc[n+](-c2nc3ccccc3nc2[N-]S(=O)(=O)c2ccc(Br)s2)cc1	-49	10	11	x	i	-11	u	-21
Cc1ccc(-n2c(C)n[nH]c2=S)cc1C	0	5	9	x	i	2	8	-11
CCOc1ccc(NC(=O)CN(C)C(=O)C2CCN(c3ncnc4sc(C)c(C)c34)CC2)cc1OCC	-5	-10	12	21	i	15	0	11
CC(OC(=O)c1cc2sccc2n1C)C(=O)NC(C)(C)C (centres undefined)	8	3	-12	x	i	7	0	25
O=C(Nc1ccc(OC(F)(F)F)cc1)C1CCCN(S(=O)(=O)c2cccnc2)C1 (centres undefined)	-9	-3	2	-7	i	-5	-6	x
O=C(c1cnc2n(c1=O)CCS2)N1CCc2ccccc21	-3	6	-1	-5	i	11	-6	-8
CCc1ccc(NS(=O)(=O)c2cccs2)cc1	-1	1	6	-16	i	2	-4	x
COc1ccc(-c2cc(C(F)F)n3ncc(C(=O)N4CCCc5ccccc54)c3n2)cc1	-1	-2	-10	-14	x	0	-4	19
O=C1c2ccccc2C(=O)N1c1ncccn1	x	x	-2	-13	i	-7	-15	x
Cc1cc(C)c(C)c(S(=O)(=O)N2CCC(C(=O)N(C)Cc3nc4ccccc4c(=O)[nH]3)CC2)c1C	0	-4	x	-12	x	x	x	16
CC(=O)N[C@H](Cc1c[nH]c2ccccc12)C(=O)O	-4	-1	1	15	i	x	x	9
COc1ccccc1NC(=O)Cn1c(CCC(=O)O)ccc1-c1ccc(C)cc1	-2	1	-19	x	i	-6	3	12
Cc1ccc(/C=C(\C#N)C(=O)NCc2ccco2)o1	1	6	-3	x	i	-6	2	1
Cc1ccc(-n2c(=O)c(C#N)cc3c(=O)n4ccccc4nc32)cc1	-10	0	-8	x	i	4	45	x
Oc1ccc(-c2onc(C(F)(F)F)c2-c2cscn2)c(O)c1	-4	-19	-18	-10	i	-9	-5	x
COc1ccc(S(=O)(=O)N2CCOC2CNC(=O)C(=O)NCc2ccc3c(c2)OCO3)cc1C (centres undefined)	2	-4	x	4	x	x	x	-41
O=C(CC(c1ccccc1)c1ccccc1)NCC(O)c1ccc([N+](=O)[O-])cc1 (centres undefined)	-1	-3	-8	-8	+	10	-7	5
O=C(c1cc(C2CCCCN2S(=O)(=O)Cc2ccccc2)on1)N1CCOCC1 (centres undefined)	1	4	x	-7	x	x	x	9
CCOc1ccc(NC(=O)c2cccc(OC(=S)N3CCC(C)CC3)c2)cc1	5	-2	15	-30	i	4	-3	-25
Cn1cnnc1SCC(=O)Nc1sc2c(c1C#N)CCCCC2	-14	-10	-15	-18	x	-6	32	x
CCOC(=O)c1c(C)[nH]c(C(=O)CSc2ccccc2)c1C	-1	-5	10	-32	i	-1	-6	x
O=C(NCc1cccnc1)c1cnc2n(c1=O)CCS2	5	6	-7	-26	i	2	-2	-11
(next part)
SMILES	MT1-MMP act inh	MT1-MMP act inh RFP	CSC inhib	UUG fidelity	Rce1 inhib	PABP polyA inh	eIF4H inh	HIV Env fusion
Cc1cc(=O)[nH]c(SCC(=O)C23CC4CC(CC(C4)C2)C3)c1C#N	9	-11	30	-12	i	15	6	29
CCNC(=S)N1CCC(c2nc3cc(C)c(C)cc3[nH]2)CC1	5	4	2	x	i	-9	-2	4
Cc1ccc(-n2c(C)c(C)c3c(NCCO)ncnc32)cc1	3	1	0	-17	i	-5	-9	-13
CCCN=C(Nc1ccc(Cl)cc1)c1cccnc1	3	4	-3	-1	i	4	-5	17
Cc1cc(SC2CCOC2=O)nc2ccccc12 (centres undefined)	0	3	-13	x	x	-5	-9	-7
O=C(O)c1cccc(N2CCCC2=O)c1	-4	0	-12	-12	i	14	-3	-92
COc1cc(S(=O)(=O)NCc2ccncc2)c(OC)cc1C	0	-15	0	-20	i	-9	-1	17
C=CCn1c(SCC(=O)Nc2nnc(C)s2)nnc1C1CC1	2	4	1	-13	i	6	11	5
Cc1cc(=O)[nH]c(SCC(=O)Nc2ccc(S(=O)(=O)N3CCOCC3)cc2)n1	3	8	-14	x	x	6	-6	11
CC(=O)Nc1ccc(S(=O)(=O)N(c2cccnc2)S(=O)(=O)c2ccc(NC(C)=O)cc2)cc1	2	3	-4	-10	i	-9	0	-22

One compound at a time (already shown).
`Oc1cc(Cc2ccccc2)cnc1CN1CCOCC1` as listed: MT1-MMP act inh: 3; MT1-MMP act inh RFP: 4; CSC inhib: -4; UUG fidelity: -21; Rce1 inhib: i; PABP polyA inh: -2; eIF4H inh: -5; HIV Env fusion: x
`O=C1NC[C@H](c2ccccc2)OC(=O)[C@@H](Cc2ccc(F)cc2)C/C=C\C[C@H]1CC(=O)N(CCO)Cc1ccccc1` as listed: MT1-MMP act inh: -30; MT1-MMP act inh RFP: -16; CSC inhib: 41; UUG fidelity: 1; Rce1 inhib: x; PABP polyA inh: x; eIF4H inh: x; HIV Env fusion: -36

These rows are one share of the data; count on the stated rates, not on these rows.
